PINK1 expr mod: PINK1 expression modulation; PINK1 immunofluorescence, high-content cytometry, 24 h; Potency, µM (series often up to 76.6 µM), inactives show at the top dose activation (PINK1 increase), hits mostly activators; 410,000 tested, 0.2% active; AID 624263; active = well fitted activation curve with a large enough effect; inconclusive = small, poorly fitted or top-dose-only effect; inactive = flat fitted curve, though single readings scatter; cell line not stated here;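 note: potency is the fitted concentration of half-maximal effect; % of control where 0% means no effect; nearly all actives have a fitted effect of over 65% in size; a mitochondrial uncoupler was the plate control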
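Decision-based qHTS: stable cells, 24 h exposure to five compound concentrations, CCCP as control. Fixed cells stained for PINK1 plus nuclear, mitochondrial and cell markers, cytometer read.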
Sfp inh: Sfp phosphopantetheinyl transferase inhibition | Q9F4F7 | Biochemical Sfp PPTase activity, qHTS | Potency, µM, for the others: max response, negative = inhibition, usual class: inhibitors | 310,000 tested, 3.5% active; active = well fitted inhibition curve with a large enough effect; inconclusive = small, poorly fitted or top-dose-only effect, or another doubt; inactive = no such curve, though single readings can be large or run the other way;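 note: the enzyme is Sfp with the accession as filed and its product quenches rhodamine fluorescence; potency is the fitted concentration of half-maximal effect; 0% = enzyme reaction without inhibitor and -100% = no enzyme wells; top concentration of the series not given in the record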
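Reaction rates are the 30-min fluorescence difference (ex 525, em 598 nm) in wells containing 15 nM Sfp, 5 uM rhodamine-CoA and 12.5 uM BHQ-2-YbbR at pH 7.6 with 10 mM MgCl2.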
Menin MLL FP FL: displaces fluorescein MLL peptide from human menin. FP activity change, % at 61.4 µM. 290,000 tested, under 10 active. Fluorescence polarization, fluorescein-MLL peptide displacement from menin. AID 1766; inconclusive = falling polarisation curve, or a change in total fluorescence; inactive = total fluorescence flat and polarisation flat or rising; no compound was filed as active; the % refers to the polarisation; negative = inhibition;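 note: % of control where 0% means no effect; inhibitors lower the polarisation; unlabelled MLL peptide was the positive control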
TRPV1 PAM: enhances activation of the human vanilloid receptor TRPV1 | Q8NER1 | TRPV1-expressing cells, Fluo-8 calcium influx, capsaicin EC20 potentiation; host cell line not named in the record; control for the full effect not named in the record | potentiation, % at 8.33 µM | 320,000 tested, 0.02% active | AID 540277; active means potentiation above 80%; inconclusive means 30% to 80%; inactive means below 30%; note: 0% is about no effect
Target sequence (Q8NER1 whole entry, looked up): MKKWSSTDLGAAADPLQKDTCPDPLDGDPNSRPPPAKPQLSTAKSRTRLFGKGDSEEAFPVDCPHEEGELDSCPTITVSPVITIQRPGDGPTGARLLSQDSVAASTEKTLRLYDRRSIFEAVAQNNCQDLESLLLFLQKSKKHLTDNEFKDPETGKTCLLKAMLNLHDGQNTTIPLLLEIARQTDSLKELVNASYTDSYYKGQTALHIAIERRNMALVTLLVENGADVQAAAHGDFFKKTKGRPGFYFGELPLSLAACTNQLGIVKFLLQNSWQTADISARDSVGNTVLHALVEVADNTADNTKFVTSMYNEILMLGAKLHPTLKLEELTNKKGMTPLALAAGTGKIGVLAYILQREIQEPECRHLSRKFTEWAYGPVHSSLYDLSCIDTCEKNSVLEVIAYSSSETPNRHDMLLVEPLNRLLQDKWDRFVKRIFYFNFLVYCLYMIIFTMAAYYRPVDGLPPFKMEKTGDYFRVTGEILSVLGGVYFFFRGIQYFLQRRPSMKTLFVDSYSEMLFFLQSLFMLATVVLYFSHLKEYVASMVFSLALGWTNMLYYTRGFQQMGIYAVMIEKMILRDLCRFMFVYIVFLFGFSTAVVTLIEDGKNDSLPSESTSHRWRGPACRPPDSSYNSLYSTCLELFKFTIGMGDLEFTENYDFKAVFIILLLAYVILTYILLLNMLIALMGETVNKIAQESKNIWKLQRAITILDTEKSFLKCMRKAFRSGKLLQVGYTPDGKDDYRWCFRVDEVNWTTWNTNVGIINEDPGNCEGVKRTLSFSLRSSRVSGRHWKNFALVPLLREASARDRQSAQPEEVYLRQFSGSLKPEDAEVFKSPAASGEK
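Cells expressing TRPV1 were dye-loaded with Fluo-8 and read kinetically: 10 s baseline, 3 min after compound (agonist portion), then 2 min after EC20 capsaicin (allosteric enhancer portion). Calcium-bound dye fluorescence at 480/520 nm.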
TRPML1 agonist: human mucolipin-1 channel agonism; Q9GZU1; TRPML1-expressing cells, Ca2+ dye fluorescence, FDSS; host cell line not named in the record; reference of the full effect not given here; activation, % (no concentration beside the values); 410,000 tested, 0.12% active; AID 624414; in the data active = activation above about 50%; inconclusive = about 30% to 50%; inactive = below about 30%; note: 0% is about no effect; the text of the record puts the active cut at 80%
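Tet-induced TRPML1-DL cells, 1,500 per well, cultured overnight, were loaded with a no-wash Ca2+ dye for 45–90 min. Calcium fluorescence was recorded on the FDSS for 110 s after compound addition, before the EC80 agonist (4 uM 54-4) was added.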
TRPML1 blocker: blocks the human TRPML1 channel; activity change, negative = inhibition, % (no concentration beside the values); TRPML1-inducible cells, Ca2+ dye fluorescence, FDSS; hits give low values; inhibition of EC80 agonist-evoked calcium signal; Q9GZU1; 390,000 tested, 0.02% active; in the data active means activity change below about -50%; inconclusive means about -30% to -50%; inactive means above about -30%;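 note: stimulus is agonist 54-4 at its EC80 concentration; % is set by controls: 0 for no effect and ±100 for the full control effect; compound concentration not given in the record; the text of the record puts the active cut at -80%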
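Calcium fluorescence in TRPML1-DL cells induced overnight with Tet: a 110 s read after compound pin addition, then a 110 s antagonist read after challenge with 54-4 at 4 uM final (EC80).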
ClpP mod: qHTS Assay for Activators of ClpP. ATP-dependent Clp protease proteolytic subunit (Bacillus subtilis (strain 168)), P80244. purified B. subtilis ClpP, FRET peptide cleavage, 20 min. Potency, µM (titrated, usually from 57.5 µM), without a hit: at the highest dose activity change, negative = active. 340,000 tested, 1.9% active. AID 651965, 2013; active = well fitted falling curve with a large enough effect; inconclusive = small, poorly fitted or top-dose-only effect; inactive = no such curve, though single readings can be large or run the other way; note: potency is the fitted concentration of half-maximal effect; the source files actives as falling curves though it sought activators and does not explain the sign; nearly all actives have a fitted effect of over 65% in size; many hits overshoot -100%
Target sequence (P80244 whole entry, looked up): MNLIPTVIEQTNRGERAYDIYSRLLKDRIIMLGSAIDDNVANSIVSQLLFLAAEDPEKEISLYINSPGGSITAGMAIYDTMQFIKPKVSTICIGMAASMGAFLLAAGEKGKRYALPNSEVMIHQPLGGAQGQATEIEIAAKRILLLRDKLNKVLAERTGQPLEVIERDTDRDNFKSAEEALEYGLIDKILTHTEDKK
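ClpP 10 microg/mL final, pH 8 Tris/KCl buffer with BSA, glycerol, Tween-20; compound pinned in; FRET-FV substrate; RT 20 min; Ex320/Em430; ΔFRET vs ADEP 5.8 microM, DMSO, no enzyme.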
An asterisk follows results filed as active; u = inconclusive; x = not tested or not shown; & = joins results of further samples; [ ] = another dose, or the depositor's remark.

Every second line gives: PINK1 expr mod | Sfp inh | Menin MLL FP FL | TRPV1 PAM | TRPML1 agonist | TRPML1 blocker | ClpP mod
[1] Cc1cc(NC(=O)CSc2nccn2-c2cccc(Cl)c2)no1
 : 0.0% | 14% | 4.1 | 0 | 2.0 | 13 | 0.8%
[2] N#Cc1ccc(C#Cc2ccc3oc4ccccc4c(=O)c3c2)cc1
 : 0.7% | x | x | x | 0.0 | 1 | -15%
[3] COc1ccc(OC)c(C2=NOC(C(=O)NCC3CCCO3)C2)c1 (stereo not drawn)
 : -1.5%[38.3 µM] | 13% | 4.6 | 11 | 0.7 | 2 | u
[4] COc1ccc(CC(=S)N2CCOCC2)cc1F
 : -0.6% | 5% | 9.5 | 4 | 1.1 | -19 | 1.4%
[5] CCN1C(C)=CC(=O)[C@@H](O)[C@H]1c1ccccc1Br
 : 1.0% | x | x | x | -0.9 | -6 | 1.1%
[6] CCCn1nnnc1NCc1ccccc1OCc1cccs1
 : x | 19% | 1.2 | -1 | 0.1 | -7 | 1.0%
[7] O=C(NCc1ccco1)c1ccc2c(=O)n(Cc3ccco3)c(SCC(=O)N3CCCC3)nc2c1
 : 6.1%[38.3 µM] | 40µM* | -3.1 | 4 | 1.9 | 19 | -8.5%
[8] CCn1c(Oc2ccccc2C)nc2c1c(=O)n(C)c(=O)n2C
 : 0.6% | 23% | 2.3 | 8 | 0.2 | 9 | 0.2%
[9] Cc1ccc(S(=O)(=O)NCC(=O)N2CCOCC2)cc1
 : 0.7% | 0% | 1.0 | x | -0.6 | 7 | 0.9%
[10] CC1CCCN(C(=O)CSc2nc3ccccc3o2)C1 (stereo not drawn)
 : 1.8% | 7% | 0.4 | -4 | -0.1 | 8 | 0.1%
[11] Cc1ccc(CNC(=O)Cn2c(=O)cc(C)c3c(C)nn(-c4cccc(F)c4)c32)cc1
 : 1.2% | x | x | x | 0.7 | 73 | -5.9%
[12] CC1(C)CC(=O)C(C=NCCN2CCNCC2)=C(O)C1
 : 3.3% | 13% | -7.1 | 3 | 0.6 | -12 | x
[13] CC1CN(C(=O)CSc2nc(-c3ccc(F)cc3)cs2)CC(C)O1 (stereo not drawn)
 : -1.5% | 11% | 1.6 | -7 | 0.1 | -9 | -8.0%
[14] CCCc1cc(=O)oc2cc(OC(=O)CN3C(=O)NC4(CCCC4)C3=O)ccc12
 : -2.3% | x | x | 5 | 0.9 | 6 | -0.1%
[15] Nc1ccc(-c2nnc(-c3ccc(N)cc3)o2)cc1
 : 0.3% | -11% | 0.5 | -2 | 0.4 | -16 | 3.5%
[16] COc1ccccc1N(CC(=O)NCCSCc1ccco1)S(=O)(=O)c1ccccc1
 : 1.3% | 15% | 0.3 | -5 | 0.4 | 7 | x
[17] Cn1c(N)c(C(=O)COC(=O)COc2ccc(C#N)cc2)c(=O)n(C)c1=O
 : -1.2% | 5% | -1.1 | -8 | 0.2 | 5 | -2.1%
[18] COc1ccc(C(=O)Nc2nc(C)cs2)cc1S(=O)(=O)N1CCOCC1
 : 1.7% | x | x | x | 0.3 | 12 | -6.0%
[19] O=C(COc1ccccc1[N+](=O)[O-])N1CCN(S(=O)(=O)c2ccccc2)CC1
 : 0.5% | 10% | -0.7 | 8 | -0.9 | 7 | x
[20] Cn1ccnc1C(=O)c1ccc(Cl)c(S(=O)(=O)N2CCOCC2)c1
 : 2.4% | 15% | 0.0 | -6 | 0.8 | -21 | x
[21] O=C(Cc1cccc2ccccc12)Nc1cccnc1
 : -0.4% | 15% | 1.8 | 9 | 0.9 | -7 | -0.4%
[22] COC(=O)C1=C(C)N(Cc2ccccc2)C(=NCc2cccc(C(F)(F)F)c2)N[C@H]1c1cccc(F)c1
 : -2.2% | 56µM* | 2.8&-3.2 | 2&11 | 0.7 | -11 | -3.1%
[23] CCCCc1ccc(-c2nc(-c3ccncc3)no2)cc1
 : 20% | 5% | 3.6 | 5 | -0.2 | 7 | 1.2%
[24] Clc1cccc(CNc2nc(-c3cccnc3)nc3ccccc23)c1
 : 8.4% | -29% | -2.9 | 26 | 2.6 | 44 | x
[25] NS(=O)(=O)c1ccc(N2CCOCC2)c(C(=O)NCCCSc2ccccc2)c1
 : 1.5% | x | x | 16 | 0.5 | 4 | 1.6%
[26] O=C(COc1cccc2ccccc12)Nc1nc2ccccc2[nH]1
 : -1.0% | 10% | 4.4 | -2 | 1.1 | -17 | -3.2%
[27] CCc1ccc(C(=O)COC(=O)C(CCSC)NC(=O)c2ccccc2)cc1 (stereo not drawn)
 : -1.2% | 11% | -5.5 | 2 | 1.8 | -4 | -1.7%
[28] CCN(C(=O)Cn1cc(C(F)(F)F)ccc1=O)c1c(N)n(Cc2ccccc2)c(=O)[nH]c1=O
 : 0.7% | u | 1.7 | -15 | 0.2 | -14 | -4.2%
[29] CCCCn1c(CN2CCN(C)CC2)nc2ccccc21
 : 1.4% | -13% | -27 | 13 | -0.3 | 3 | -1.6%
[30] COC(=O)c1cc(C)sc1NC(=O)CN1CCN(C(=O)c2ccco2)CC1
 : 1.4% | 0% | x | 12 | 0.4 | 14 | u
[31] COC(=O)c1ccc(NS(=O)(=O)c2cc(C)ccc2OC)cc1
 : 3.3% | -3% | 0.8 | -8 | 2.1 | 5 | 0.8%
[32] COCc1cc(=O)n2[nH]c(C)nc2n1
 : 2.1% | 24% | -1.3 | -21 | -1.1 | 9 | -4.2%
[33] Cc1ccc(C(C(=O)NC2CCCC2)N(C(=O)Cc2cccs2)c2ccc(C)c(C)c2)o1 (stereo not drawn)
 : x | -4% | 4.3 | -26 | 2.9 | 14 | -0.5%
[34] COc1cc(C(=O)O)ccc1OCc1ccncc1
 : -1.1% | 4% | -2.0 | 19 | 0.2 | 18 | 0.3%
[35] Cc1c(CCC(=O)O)c(=O)oc2cc(OCc3ccccc3Br)ccc12
 : 0.0% | 7% | -2.4 | -10 | 0.4 | 36 | 3.8%
[36] O=C(Nc1ccncc1)c1c(F)cccc1F
 : -0.6%[38.3 µM] | 18% | 2.5 | 4 | 2.8 | 4 | -1.6%
[37] CC(=O)Nc1nnc(SCc2cc(=O)c(OC(=O)c3ccccc3)co2)s1
 : 1.6% | 10% | -0.6 | 1 | 0.9 | 7 | x
[38] COc1cccc(C(=O)n2ccc(-c3cccs3)n2)c1
 : 2.1% | 1% | -2.1 | -6 | -0.1 | 8 | 1.7%
[39] NC(=O)c1ccc(Sc2nnc(-c3cccs3)n2CC2CCCO2)c([N+](=O)[O-])c1 (stereo not drawn)
 : 0.5% | -20% | 2.3 | 22 | 0.0 | 9 | -0.6%
[40] c1ccc(-c2ccccc2OCCCN2CCCCC2)cc1
 : 1.3% | -35% | -1.1 | -8 | 1.0 | -9 | -1.7%
[41] COC(=O)c1cnc(NNS(=O)(=O)c2ccc(Cl)cc2)nc1C(F)(F)F
 : -0.2% | -2% | -0.9 | 11 | 0.0 | 1 | x
[42] CS(=O)(=O)N1CCC2(CCCN(c3ccccn3)C2)CC1
 : -0.2% | 20% | 1.7 | x | x | x | x
[43] CC(NC(=O)CCc1ccccc1)c1ccc2c(c1)OCO2 (stereo not drawn)
 : u | 15% | -4.7 | -1 | 1.0 | 29 | -0.5%
[44] COc1cccc(NC(=O)COC(=O)c2ccc3ccccc3n2)c1
 : -0.7% | x | x | x | 2.8 | -21 | -0.7%
[45] CN(CC(=O)Nc1cccc(F)c1)C(=O)CCc1nc2ccccc2c(=O)[nH]1
 : -1.0% | x | x | 2 | 0.8 | 9 | -0.7%
[46] COCCn1c(=O)cnc2cnc(Nc3ccccc3)nc21
 : 0.5% | 9% | 5.2 | x | x | x | x
[47] CC(=O)Nc1ccc(S(=O)(=O)NNc2ccc([N+](=O)[O-])cc2)cc1
 : 2.0% | 22µM* | -1.0 | -1 | -0.8 | -10 | -0.1%
[48] Cc1ccc(NC(=O)c2cnccn2)cc1
 : 0.5% | 12% | 0.0 | -14 | 0.0 | 14 | x
[49] N#Cc1c(NC(=O)CSc2nc3c(c(C(F)(F)F)n2)CCc2ccccc2-3)sc2c1CCCC2
 : 22%[38.3 µM] | -20% | -1.4 | 12 | -0.4 | 10 | 3.9%
[50] C/C(=N\Nc1c(F)c(F)c(Br)c(F)c1F)c1ccncc1
 : -0.2% | -15% | 0.2 | 13 | 0.7 | 36 | u
[51] COc1ccc(CNC(=O)C2CCN(S(=O)(=O)c3cccc4cccnc34)CC2)cc1
 : x | 3% | 0.9 | 9 | x | x | x
[52] CCOc1cc(C(=O)Nc2ccc(S(=O)(=O)NC3=NCCCCC3)cc2)cc(Br)c1OC
 : -1.3% | x | x | 12 | 4.0 | 2 | -0.4%
[53] CN(C(=O)CSc1nnc2ccccn12)c1c(N)n(Cc2ccccc2)c(=O)[nH]c1=O
 : -0.3% | -17% | 2.6 | 28 | 1.2 | 1 | -12%
[54] O=C(CCNC(=O)c1ccccc1Cl)NCC12CC3CC(CC(C3)C1)C2
 : 0.6% | 2% | 1.0 | -7 | -0.1 | -1 | -3.2%
[55] CC1=NN(c2ccc(S(=O)(=O)O)cc2C)C(=O)C1
 : 7.1% | 11% | 1.6 | 0 | -0.1 | -6 | 0.8%
[56] Cc1c(C(=O)NCc2cccs2)oc2ccc(S(=O)(=O)N3CCOCC3)cc12
 : 2.3% | 11% | 0.1 | 4 | 0.4 | 29 | -0.1%
[57] COc1ccc(-c2nn3c(=O)c(C)nnc3s2)cc1
 : 0.5% | 7% | 12 | 4 | -0.1 | 0 | -15%
[58] O=C(c1ccccc1)C1CCN(c2ncccc2[N+](=O)[O-])CC1
 : -1.1% | 10% | -1.2 | -5 | 0.2 | 29 | x
[59] CC1(C)Cc2cccc(OCC(=O)Nc3cc(S(C)(=O)=O)ccc3Cl)c2O1
 : 0.0% | x | x | 1 | 1.6 | -2 | -2.2%
[60] CC(C)CN1CCC(=O)N(CCSc2ccccc2)CC1
 : 0.5% | 12% | 1.5 | -10 | 1.2&-0.4 | -2 | -3.1%&-1.4%
[61] CCOC(=O)CN1C(=O)N[C@@H](c2ccccc2)[C@@H](C(=O)OC)[C@H]1C
 : -0.2% | 16% | 1.3[11.7 µM] | x | 0.1 | -15 | 0.2%
[62] CCOC(=O)c1cc(-c2ccc(OC)cc2)n(CCC(=O)NCCc2ccc(OCC)c(OCC)c2)c1C
 : 5.1% | x | x | x | 1.9 | 9 | -1.6%
[63] CCCCN(C(=O)c1cc(-c2ccco2)nc2ccccc12)c1c(N)n(CCC)c(=O)[nH]c1=O
 : -0.1% | x | x | -1 | -1.3 | -13 | -15%
